LANA-H2A inh – blocks KSHV LANA binding to histone H2A/H2B. AID 2629. 320,000 compounds, 0.6% hits. inhibition, % (no concentration beside the values). Q9QR71. cell-free LANA-H2A/H2B peptide, fluorescence polarization; in the data active means inhibition mostly above about 10%, no sharp cut-off; inactive means mostly below about 6.7%;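 further: stock transfer was 7.5 nL into about 10 µL; 0% = median of vehicle wells and 100% = median of positive control wells; one replicate is shown; the record names a cut of 25% in any replicate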
B2AR ag – human beta-2 adrenergic receptor agonism by FAP | Am2.2-beta2AR cells, FAP receptor internalization, flow cytometry; reference of the scale not given here | response, % (concentration not given with the values) | 340,000 compounds, 0.43% hits | AID 504454;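 active means response above a set limit, near 3 SD of response in nonfluorescent compounds, cut at about 42% in these data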;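 further: stock transfer was 100 nL into about 11 µL; a reference agonist was the positive control; negative values mostly stem from fluorescent compounds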
Target sequence (P07550 whole entry, looked up): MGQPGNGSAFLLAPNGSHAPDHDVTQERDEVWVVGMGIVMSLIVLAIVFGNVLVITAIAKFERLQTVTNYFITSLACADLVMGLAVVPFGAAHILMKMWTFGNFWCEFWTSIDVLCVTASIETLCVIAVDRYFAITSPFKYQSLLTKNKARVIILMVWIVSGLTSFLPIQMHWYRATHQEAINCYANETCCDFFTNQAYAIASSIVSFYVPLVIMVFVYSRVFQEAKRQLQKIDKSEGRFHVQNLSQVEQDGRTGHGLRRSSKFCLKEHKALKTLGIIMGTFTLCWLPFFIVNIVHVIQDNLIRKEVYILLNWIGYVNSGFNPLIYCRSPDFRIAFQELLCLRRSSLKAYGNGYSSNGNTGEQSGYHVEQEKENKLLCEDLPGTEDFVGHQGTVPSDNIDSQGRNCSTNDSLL
Calb FLC – affects C. albicans growth with fluconazole; C. albicans CaCi-2 (fluconazole-resistant clinical isolate) + fluconazole, Alamar Blue growth, 48 h; growth inhibition, % (no concentration beside the values); 300,000 compounds, 0.57% hits; AID 1979;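 active means most replicates above 75%; inconclusive means exactly half above 75%; inactive means most below 75%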;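 further: all wells also contain fluconazole at 8 µg/ml as a sub-toxic cotreatment; 0% = median of DMSO wells and 100% = median of geldanamycin control wells; wells of about 8 µL received 7.5 nL stock; the first replicate is given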
rRNA inh HTS – selective bacterial rRNA inhibition in E. coli | GFP signal change (wild-type ribosome), % (concentration not given with the values) | 350,000 compounds, 1.6% hits | E. coli WT GFP vs humanized-ribosome RFP mutants, fluorescence, 24 h; hits give low values; DMSO median 0, no signal -100 | AID 720706;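 active means significant combined selectivity score with lowered wild-type GFP, culture density cut under 30%, mutant RFP and density less affected; inactive means any of these conditions unmet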; further: one replicate is shown; some compounds called inactive have numbers as strong as hits
ALR inh – blocks human ALR sulfhydryl oxidase activity; purified ALR, DTT oxidation, H2O2 HRP-luminol luminescence; inhibition, % (no concentration beside the values); P55789; 290,000 compounds, 3.8% hits;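 active means mean and each replicate at 75% or more; inconclusive means only one of the two met; inactive means neither met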;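 further: stock transfer was 7.5 nL into about 7.5 µL; 0% = neutral wells and 100% = wells with inactivated enzyme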
Target sequence (P55789 whole entry, looked up): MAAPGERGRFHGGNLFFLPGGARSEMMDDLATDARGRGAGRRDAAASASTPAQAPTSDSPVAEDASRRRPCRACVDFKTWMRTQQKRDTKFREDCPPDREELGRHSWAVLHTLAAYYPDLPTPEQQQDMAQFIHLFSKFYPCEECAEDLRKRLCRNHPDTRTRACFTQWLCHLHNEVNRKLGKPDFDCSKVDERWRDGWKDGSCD
Bfl-1 A1 inh – inhibitors of the anti-apoptotic protein A1, read as caspase activation. MEF A1-2A-BIM cells, Caspase-Glo 3/7 luminescence, 3 h; percent of clofoctol response, vehicle zero. caspase activation, % (no concentration beside the values). 330,000 compounds, 0.066% hits;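 active means over half of replicate activation scores above 10%, or exactly half above 10 with the replicate mean above 10; inconclusive means replicate mean below 10 yet half the replicates above 10; inactive means over half of replicates below 10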;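 further: wells of about 30 µL received 50 nL stock; many hits fall short of the cut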
T cruzi repl – blocks replication of Trypanosoma cruzi; AID 1885; T. cruzi beta-gal in NIH3T3, luminescence, 90 h; inhibition, % (concentration not given with the values); 300,000 compounds, 1.4% hits;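 active means mean inhibition across valid replicates above about 55%, limit read from the data; inconclusive means mean below that limit but half or more replicates reach it; inactive means mean below it, under half of replicates reach it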;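 further: signal also drops with host cell toxicity which is not excluded here; 0% = plate median of DMSO wells and 100% = zero luminescence signal; higher percent means less beta-gal luminescence so fewer parasites; stock transfer was 50 nL into about 50 µL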
Beta cell apopt – beta cell apoptosis inhibition; INS-1E cytokine-induced death, ATP luminescence, 48 h; percent of positive-control rescue, neutral wells zero; protection from apoptosis, % (test concentration not listed); 300,000 compounds, 0.8% hits; AID 435005;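 active means all replicates at 75% or more, or half of them and the mean; inconclusive means half reach 75% but not the mean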;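 further: 0% = cytokine-treated negative control wells and 100% = positive control rescue; higher means more ATP so stronger rescue from cytokine killing; wells of about 40 µL received 100 nL stock; the first replicate is given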
rRNA inh HTS OD600 – recorded beside rRNA inh HTS, whose call it bears; OD600 change, %; measured here: OD600 growth;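 optical density of the mix in the first replicate; 0 = DMSO median and -100 = no signal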
rRNA inh HTS RFP – further read-out of rRNA inh HTS, marked with its call; RFP signal change, %; measured here: RFP humanized mutant strains;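 first replicate; 0 = DMSO median and -100 = no signal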
* marks the source's active call; other numbers are inactive results; ? = inconclusive; nt = not tested or not shown; & = joins results of further samples. Not all compounds are listed; rates above refer to the full screens.

SMILES	LANA-H2A inh	B2AR ag	Calb FLC	rRNA inh HTS	rRNA inh HTS OD600	rRNA inh HTS RFP	ALR inh	Bfl-1 A1 inh	T cruzi repl	Beta cell apopt
O=C1CC2C(=O)NCCN2C(=NC(=O)c2ccccc2)N1 (centres undefined)	nt	2	4	15	7	-4.3	nt	-0.4	-15	-1
COc1ccc(NC(=O)CN2CCN(c3c(C)cc(C)cc3C)CC2)cc1	-9.1	10	5	-19	-60	13	1	-0.1	2	-4
C[C@H](CO)N1C[C@H](C)[C@@H](CN(C)C(=O)NC2CCCCC2)Oc2ccc(NC(=O)CCC(F)(F)F)cc2C1=O	1.2	-2	nt	14&4	9&11	4.3&-3.2	-4	0.4	nt	-4
COc1ccccc1N1CCN(CC(=O)Nc2ccc(S(=O)(=O)N3CCCCCC3)cc2)CC1	-7.8	0	nt	6	-12	11	nt	-1.8	nt	12
COc1ccccc1NC(=O)/C(=N/OCc1ccc(F)cc1)C(C)=O	1.3	-3	13	3	8	-2.9	2	0.6	8	nt
CC(C)CCOc1ccc(NC(=O)C2OC3OC(C)(C)OC3C3OC(C)(C)OC23)cc1 (centres undefined)	2.6	3	?	nt	nt	nt	-4	0.0	-19	-6
COc1ccc2oc(=O)c(C(=O)N3c4ccccc4CC3C)cc2c1 (centres undefined)	7.6	-15	-2	-11	-13	5.6	-1	0.4	-11	-1
Cc1ccccc1C(=O)Nc1ccc(N(C)C)c2ccccc12	2.6	-1	5	-17	-22	2.2	44	0.6	8	-8
Cc1ccc(C(=O)NCCc2c[nH]c3ccccc23)c(C)c1	0.0	-5	-7	-2	-13	-3.1	-5	-1.2	4	nt
O=C(Cc1ccccc1F)OCC(=O)N1CCc2ccccc21	0.0	-6	5	4	0	-2.4	-3	0.8	8	-9
O=C(CN(C(=O)CCC(=O)Nc1nccs1)c1ccc(F)cc1)NCc1ccccc1	3.1	-1	21	-1	10	-1.6	0	0.7	13	-1
O=C(CN1CCOCC1)Nc1cccc(C(=O)Nc2cccc(C(F)(F)F)c2)c1	-3.5	-5	17	nt	nt	nt	-2	0.2	3	-2
COc1ccc(N(CC(=O)NC2CCCC2)C(=O)Cn2nnc(-c3ccc(C)o3)n2)cc1	nt	9	-4	6	17	6.6	nt	nt	1	nt
CCCC(C)c1nnc(NC(=O)CCS(=O)(=O)c2ccccc2)s1 (centres undefined)	-2.1	-8	-3	1	2	0.3	3	0.5	-13	-17
CN(C)C(=O)c1cnc(Sc2ncc(C(F)(F)F)cc2Cl)n1C	2.5	-2	0	nt	nt	nt	0	1.2	-14	-5
O=C(COC(=O)c1ccc2c(c1)OCCO2)NCc1ccccc1Cl	-0.8	2	nt	24	19	3.0	1	-0.9	nt	-4
CCCn1c(SCC(=O)N(C)CC(=O)Nc2ccc(Cl)cc2)n[nH]c1=O	2.8	2	nt	3	7	-0.1	nt	0.3	nt	-3
CCCOc1ccc(-c2nnn(CC(=O)N3CCCCC3)n2)cc1	-4.0	-34	2	0	5	-3.1	-4	0.2	1	2
COc1ccc(C(=O)Nc2scc(-c3ccc(Cl)cc3Cl)c2C(N)=O)cc1	1.2	4	12	nt	nt	nt	-10	-2.2	44	23
CCN1C(=O)c2cccc3c(NC(=O)c4ccccc4)ccc1c23	-0.3	-17	6	nt	nt	nt	-13	0.4	-17	-4
Oc1[nH]c2ccccc2c1C=NCC1CCCO1 (centres undefined)	-1.1	-9	-8	nt	nt	nt	98*	0.3	2	-3
Cc1ccccc1OC(C)C(=O)N1CCN(c2ccccn2)CC1 (centres undefined)	3.0	-7	2	0	1	-0.4	-4	-0.1	-16	0
O=S(=O)(c1ccccc1)c1ccccc1/C=N\O	4.7	5	-1	nt	nt	nt	-3	0.8	-2	-1
Cc1ccc(NC(=O)CC2SC(=O)NC2=O)cc1 (centres undefined)	5.3	-3	2	nt	nt	nt	63	0.6	-5	-4
COCCCNCC(=O)Nc1sc(C)c(C)c1C(=O)OC	0.7	6	-14	nt	nt	nt	5	0.4	2	4
CCN(CC)CCCNc1ccc(-c2nnc(-c3ccc(OCC(C)C)cc3)o2)cn1	4.4	48*	4	-2	-13	-4.3	-4	-0.6	55*	14
Cc1ccc(SCCCCN2CCNCC2)cc1	18*	2	?	2	-3	-1.3	nt	1.1	27	-2
Cc1cc(SCNC(=O)c2ccccc2)ncn1	-1.9	-6	-3	7	4	2.4	94*	-0.3	-5	-12
CC(C)c1ccc(-c2noc(C3CCCN(C(=O)c4ccc(F)cc4F)C3)n2)cc1 (centres undefined)	0.7	-7	-9	nt	nt	nt	8	0.3	28	15
CCCN(C(=O)CN1C(=O)NC2(CCCCCC2)C1=O)C1CCS(=O)(=O)C1 (centres undefined)	-0.6	3	-15	nt	nt	nt	0	1.3	-11	-5
CCN=C1Sc2nc3ccc(OCC)cc3cc2CN1CCOC	-2.6	6	7	nt	nt	nt	-56	0.2	1	3
CCOC(=O)c1ccc2c(c1)sc(=NC(=O)c1ccco1)n2CCOC	4.9	-16	5	nt	nt	nt	nt	1.0	10	2
CC(NC(=O)CSc1n[nH]c(N)n1)c1ccccc1 (centres undefined)	0.4	11	-2	2	2	-2.5	nt	-0.5	7	-8
Cc1cccc(NC(=O)c2cccc(NC3=NC4CS(=O)(=O)CC4S3)c2)c1 (centres undefined)	0.1	-3	-4	6	7	0.5	-6	0.4	2	-11
Cc1nn(-c2ccccc2)c(Cl)c1/C=C1\SC(=S)NC1=O	-10	9	40	nt	nt	nt	19	0.1	-20	nt
Cc1cccc(S(=O)(=O)C(C#N)c2nc3ccccc3nc2N2CCOCC2)c1 (centres undefined)	0.6	7	6	6	-8	1.6	19	-0.4	3	2
C[C@@H](CSc1ccc(Br)cc1)CN1CC[C@H](C(C)(C)C)CCC1=O	2.4	0	nt	-7	-12	4.8	-1	-0.5	nt	-3
CN(C)C(=O)CSC1c2ccccc2C(=O)N1c1ccccc1 (centres undefined)	-6.1	-8	2	-14	-3	-2.6	-17	-0.5	1	3
O=C(c1ccc(F)cc1F)N1CCN(c2ccccn2)CC1	4.7	-6	0	5	5	0.2	nt	1.4	6	0
CN(C)C(=O)CSc1cccc2cccnc12	2.2	15	-17	nt	nt	nt	-8	-0.1	44	-13
CCC(CC)C(=O)N=C1SC2CS(=O)(=O)CC2N1CCc1ccc(OC)c(OC)c1 (centres undefined)	-1.0	1	1	-5	-4	-2.4	nt	-0.8	-4	0
CCOCCCN(C(=O)c1snc(C(N)=O)c1N)C(C(=O)NCCC(C)C)c1ccc(F)cc1 (centres undefined)	-8.3	-1	10	1	-6	-1.1	nt	2.0	-11	0
Cc1ccnc(NS(=O)(=O)c2ccc(NC(=O)C3CCCCC3)cc2)n1	-4.1	-2	-1	nt	nt	nt	-3	1.5	-3	nt
CCCN1CCN(C(=O)c2cc3c(s2)-c2ccccc2OC3)CC1	0.9	-13	7	-7	-17	-0.9	-9	-0.2	4	-13
O=C(Nc1cccc(Cl)c1)Nc1ccc(Br)cc1F	-3.9	3	-2	-46	-68	-16	14	-0.3	?	nt
Cc1c(Cl)cnc(NC(=O)COC(=O)C(NC(=O)c2ccco2)C(C)C)c1Cl (centres undefined)	2.4	5	-17	nt	nt	nt	20	-0.4	-6	-2
COc1ccc(N2CCN(C(=O)c3cccc(NS(=O)(=O)c4cccc(F)c4)c3)CC2)cc1	nt	-5	-14	-6	-8	1.4	nt	nt	9	nt
CCn1c(=N)n(CC(O)COc2ccc(C)cc2)c2ccccc21 (centres undefined)	-2.1	1	-12	-11	-16	-2.0	2	0.2	3	6
Cc1ccc(NC(=O)Cn2nc(C(=O)O)c3ccccc3c2=O)cc1S(=O)(=O)N1CCOCC1	4.1	4	nt	16	5	5.1	-1	0.9	nt	3
CCN(CC)CCNC(=O)c1cc2c(=O)n(CC)c3ccccc3c2s1	0.7	-2	-5	6	3	0.4	-2	0.2	6	1
CC(C)COC(=O)C(C)Nc1n[nH]c(=S)[nH]c1=O (centres undefined)	2.3	4	12	2	-4	-2.3	3	-0.4	-10	-2
CCOC(=O)C1(CCc2ccccc2)CCN(C(=O)CN2CCOC2=O)CC1	-3.1	40	12	26	16	0.6	0	0.7	1	-3
C=CCn1c(SC(C)C(=O)NC2CC2)nnc1-c1ccoc1C (centres undefined)	2.6	-2	4	4	2	-1.7	4	-0.4	-4	2
COC(=O)N/N=C\c1c(C)[nH]n(-c2ccccc2)c1=O	1.9	6	17	3	7	-1.8	17	-0.2	-1	-2
O=C(O)c1ccc(N2C(=O)CC(SC(=NCc3ccc4c(c3)OCO4)Nc3ccccc3)C2=O)cc1 (centres undefined)	7.6	6	-1	-19	-21	9.1	-3	0.1	-6	2
COc1cc(C2c3c(oc4ccccc4c3=O)C(=O)N2CCN2CCOCC2)cc(OC)c1OC (centres undefined)	4.8	-6	-4	nt	nt	nt	-3	0.1	-12	-11
CCc1nnc(NC(=O)CSc2nnc(CNc3ccc(Cl)cc3)o2)s1	0.5	-3	16	nt	nt	nt	99*	1.6	-12	-1
O=C(Cn1c(=S)[nH]c2ccccc2c1=O)N1CCN(c2ccccc2)CC1	5.2	-7	14	-3	3	1.4	13	0.0	2	5
Cc1ccc(C)c(NC(=O)CN(C)C(=O)c2ccccc2OCc2c(C)noc2C)c1	0.0	0	nt	11	0	2.6	-2	0.5	nt	0
O=S(=O)(c1ccccc1F)N1CCCc2ccccc21	-2.9	-1	5	-25	-26	-1.1	-3	0.9	6	0

Next part
SMILES	LANA-H2A inh	B2AR ag	Calb FLC	rRNA inh HTS	rRNA inh HTS OD600	rRNA inh HTS RFP	ALR inh	Bfl-1 A1 inh	T cruzi repl	Beta cell apopt
O=C(O)COCC(=O)Nc1ccc2c(c1)CCC2	-0.2	7	-16	nt	nt	nt	8	-0.6	-20	0
Cc1ccc(NC(=O)c2c(C)noc2C)cc1S(=O)(=O)N1CCOCC1	-7.4	0	nt	2	8	-2.8	-4	0.9	nt	-2
CC1CCCN(C2(O)C(=O)Nc3c(C(F)(F)F)cccc32)C1 (centres undefined)	-1.2	0	5	-8	-26	-4.7	-1	0.6	-4	-18
CC(C)NC(=O)/C(=N\O)c1ccccc1	-5.5	9	1	nt	nt	nt	-8	0.1	-3	2
CCOc1cc(N2CCOCC2)c(OCC)cc1NC(=O)CCS(=O)(=O)c1ccc(Cl)cc1	1.3	1	-4	nt	nt	nt	nt	0.2	33	2
O=C(/C=C/c1ccccc1)N/C(=C/c1ccccc1)C(=O)Nc1ccc(C(=O)O)cc1	0.0	-1	-4	-27	-42	-14	87*	0.4	-28	5
Cc1ccc(NC(=O)CNc2cc(S(=O)(=O)N3CCOCC3)ccc2NCC2CCCO2)cc1F (centres undefined)	-3.7	12	-5	-22	-11	13	-4	-0.4	5	1
C=CCOC(=O)N1CCN(c2cccc(C(F)(F)F)c2)CC1	2.7	5	-7	nt	nt	nt	-1	0.4	11	2
O=C(CCCc1cccs1)Nc1nccs1	-2.6	5	-5	nt	nt	nt	3	0.8	-8	-4
